AmpC nodet inh – inhibitors of E. coli AmpC beta-lactamase without detergent; P00811; AmpC nitrocefin hydrolysis, absorbance 480 nm, no detergent; potencies from a single point are estimates; Potency, µM (titrated, usually from 28.7 µM), without a hit: top-dose activity change, negative = inhibition; 1.8% of 71,000 active; AID 585; active = falling curve, for most hits resting on a single point; inconclusive = weak or doubtful change; inactive = flat or rising curve; also: % of control where 0% means no effect; about half of the hits show no inhibition at the top dose; a quarter of the inactives give rising signals
Target sequence (P00811 whole entry, looked up): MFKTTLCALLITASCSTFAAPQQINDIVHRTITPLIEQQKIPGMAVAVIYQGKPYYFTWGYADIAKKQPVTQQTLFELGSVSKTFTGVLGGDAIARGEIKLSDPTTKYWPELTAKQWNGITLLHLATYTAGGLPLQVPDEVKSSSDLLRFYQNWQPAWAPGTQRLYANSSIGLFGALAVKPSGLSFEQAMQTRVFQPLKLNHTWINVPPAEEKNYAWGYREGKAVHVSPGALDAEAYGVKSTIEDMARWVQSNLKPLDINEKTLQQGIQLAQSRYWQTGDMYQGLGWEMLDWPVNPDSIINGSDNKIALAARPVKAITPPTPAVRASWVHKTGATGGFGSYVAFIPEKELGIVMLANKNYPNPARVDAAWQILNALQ
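AmpC in 20 mM phosphate buffer pH 7.0 was preincubated 15 min at room temperature with compounds. Nitrocefin (800 uM stock) was then added and hydrolysis followed at 480 nm every 20 s for 4 min.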
An asterisk follows results filed as active; ? = inconclusive; [ ] = another dose, or the depositor's remark. Potency is read from the fitted curve at half-maximal effect. An excerpt; count on the stated rates, not on these rows.

structure	AmpC nodet inh
COc1ccc(C)cc1S(=O)(=O)NC1CCCCC1	24%
N#Cc1ccc(CSc2nnc(-c3cccs3)n2-c2ccccc2)cc1	-5%
Cc1ccc(-n2c(N)c(C(=O)N3CCOCC3)sc2=S)cc1	13%
COC(=O)C(c1ccccc1)C1CCCCN1 (stereo not drawn)	-12%
COc1ccc(N/C(=N\c2nc(C)cc(C)n2)NC(C)=O)cc1OC	111%
CCOc1cc(C2C(C(=O)c3ccccc3)=C(C(=O)OC)Nc3nnnn32)ccc1O (stereo not drawn)	-4%
Nc1nc(SCC(=O)OCc2ccccc2)[nH]c(=O)c1NC(=O)c1ccco1	22%
N#Cc1nc(-c2ccco2)oc1N1CCc2ccccc2C1	11%
O=C(Oc1ccccc1)N1CCC[C@@]2(CCN(c3ccccc3)C2)C1	21%
CCOC(=O)C1CCCN(C(=O)Cc2ccc(OC)c(OC)c2)C1 (stereo not drawn)	10%
O=C(OCn1nnc2ccccc2c1=O)c1cn(-c2ccccc2)nc1-c1cccnc1	113%
Cc1cccc2nc(Cn3c(=O)n(CCCC(=O)NCc4ccco4)c(=O)c4ccccc43)cc(=O)n12	93%
COc1cccc(CNC(=O)c2cc3oc4ccccc4c3n2C)c1OC	30%
CCOC(=O)c1c(NC(=O)c2cccs2)sc2c1CC(C)(C)OC2	40%
O=C(O)c1cc[c]([Hg][Cl])cc1	-10%
COc1ccc(N2CCN(Cc3cc(=O)oc4cc5c(cc34)CCCC5)CC2)cc1	?
C=CCNc1nc(NCc2ccco2)nc(OCC)n1	-4%
Cc1cc(C)c(C#N)c(Nc2ccccc2Cl)n1	-4%
CCOC(=O)N1CCC(N2C(=O)c3ccc(C(=O)O)cc3C2=O)CC1	-7%
Nc1nc2n(n1)C(c1cccc(Br)c1)CC(c1ccccc1)N2 (stereo not drawn)	20%
O=C(O)c1n[nH]c2c1CCCCC2	-6%
COc1ccccc1N1CCN(S(=O)(=O)c2c(C)ccc3nsnc23)CC1	52%
CC1CCN(Cc2c(C#N)c3ccccc3n2C)CC1	3%
O=C(/C=C\C=C/c1ccc2c(c1)OCO2)N1CCCCC1	17%[12.8 µM]
COc1c(Br)cc(Br)cc1C(=O)O	8%
CC(=O)N1CCC2(CC1)CN(c1ccccc1)C2	2%
COc1cccc(-c2cc(NCc3cccc(C)c3)ncn2)c1	13%
COC(=O)c1ccc(C2C(C(=O)Nc3ccc(C)cc3C)=C(C)Nc3ncnn32)cc1 (stereo not drawn)	28%
COc1ccc2cc(C(c3nnnn3C3CCCC3)N3CCc4ccccc4C3)c(=O)[nH]c2c1 (stereo not drawn)	27%
COc1ccc(OC)c(NC(=O)Cn2c(=O)oc3ccccc32)c1	2%
COc1ccc(CCNC(=O)c2cc(-c3ccccc3OC)on2)cc1OC	65%
O=C(CSc1nc2c(c(=O)n1-c1ccc(Cl)cc1)SCC2)N1CCCC1	12%
CCOc1ccc(NC(=O)NC2CCOC(C)(C)C2)cc1 (stereo not drawn)	-4%
COCCNC(=O)C(c1ccc(F)cc1)N(CCOC)C(=O)CCC(=O)Nc1nccs1 (stereo not drawn)	16%
Cc1noc(NC(=O)Nc2ccccc2F)c1C#N	9%[5.75 µM]
CN(CC(=O)Nc1ccc(Cl)cc1)S(=O)(=O)c1cccc2cccnc12	-13%
C=CCn1c(N)c(C(=O)N2CCOCC2)sc1=S	-1%
COc1ccc(C(=O)n2nc(-c3ccco3)nc2SC)cc1OC	60%
c1ccc(COCc2ccccc2)cc1	2%
Cc1ccc(NC(=O)CS(=O)CC(=O)Nc2ccc(N3CCOCC3)cc2)cc1Cl (stereo not drawn)	-20%
COc1ccc(O)c(C(=O)c2cnc3onc(C(C)C)c3c2)c1	-4%
C[C@@H]1Cc2ccccc2N1NC(=O)c1ccc(Cl)c(S(N)=O)c1 (stereo partly drawn)	-1%[12.8 µM]
CCCCCCOC(=O)C(C#N)c1nc2ccccc2nc1N1CCOCC1 (stereo not drawn)	67%
COc1ccc(C2(CNC(C)=O)CCOCC2)cc1OC	-5%
CC(C)Sc1nc(O)c(Cc2ccccc2)c(=O)[nH]1	-3%
Cc1cc(NC(=O)c2cccc(C(=O)Nc3cc(C)on3)n2)no1	7%
Cc1ccc(NC(C(N)=O)c2c(C)[nH]c(=O)[nH]c2=O)cc1 (stereo not drawn)	-10%
Cc1cnn(C(=S)NCc2ccc(Cl)cc2)c1	-12%
COc1ncc2nc(-c3ccc(F)cc3)c(=O)n(CCC#N)c2n1	-5%
O=C(Cn1c(=O)c2c(ncn2Cc2ccccc2)n(Cc2ccccc2)c1=O)N1CCCC1	100%

The listing continues:
structure	AmpC nodet inh
Cc1ccccc1C(=O)NC1CCN(Cc2nnnn2Cc2ccccc2)CC1	34%
O=C(NCC(c1cccnc1)N1CCN(c2ccc(F)cc2)CC1)C1CCCCC1 (stereo not drawn)	91%
COc1ccccc1CNC(=O)CCC(=O)Nc1nnc(C)s1	-8%
CCOC(=O)c1ccc(N2C(=O)CC(N3CCN(C(=O)c4ccco4)CC3)C2=O)cc1 (stereo not drawn)	34%
Cc1ccc(-c2nnc(SCC(=O)N3CCCC3)o2)cc1	16%
O=S(=O)(Nc1ccccc1F)c1ccc2nsnc2c1	-10%
CCN(CC)CCNc1nc2c(c(=O)n(C)c(=O)n2C)n1C/C=C(/C)Cl	14%
Cc1ccc(-[n+]2cc(=O)o[nH]2)cc1	-4%[5.75 µM]
Cn1c2ccccc2c2c(C(=O)N3CCC4(CC3)OCCO4)cn(C3CCCC3)c(=O)c21	91%
CCCCn1c(=O)n(CC(=O)NCc2ccc(C)cc2)c(=O)c2c1nc(CO)n2CCC	109%
COc1cc(C(=O)N(Cc2ccc(N(C)C)cc2)C2CCS(=O)(=O)C2)cc(OC)c1OC (stereo not drawn)	36%
CCOc1ccc(/C(O)=C2/C(=O)C(=O)N(CC3CCCO3)C2c2ccc(C)o2)cc1 (stereo not drawn)	-1%
Cc1ccc2nsnc2c1S(=O)(=O)N(CCO)Cc1cc2cc3c(cc2[nH]c1=O)OCCO3	21%
CCC(CC)C(=O)Nc1cccc(C(=O)N2CCCC2)c1	-5%
Cc1occc1C(=O)Nc1ccccc1C(=O)O	-10%
CCOC(=O)C1=C(C)NC(C)=C(C(=O)OC)[C@@H]1c1cccc([N+](=O)[O-])c1	21%[12.8 µM]
CC(=O)CSCc1ccccn1	-8%[5.75 µM]
CCCN1CCN(C(=O)CCCn2c(C)c3cnn(-c4ccccc4)c(=O)c3c2C)CC1	98%
CC(=O)NCCc1cc2ccc(C)cc2[nH]c1=O	4%
O=C(NC1CCCCC1)c1ccc(CS(=O)(=O)Cc2ccccc2F)o1	11%
CC(=O)/C(CN1CCCCC1)=N\O	13%
COc1ccccc1N=c1oc2cc(O)ccc2cc1C(=O)NCC1CCCO1 (stereo not drawn)	84%
C[C@@H](COc1ccc(/C=C\c2ccccc2)cc1)[N+](C)(C)C	55%
COC(=O)c1[nH]c2ccc(Cl)cc2c1NC(=O)CCN1CCN(C2CCCCC2)CC1	19%
CN1CCN(c2ncncc2-c2ccoc2)CC1	16%
COc1ccc(F)cc1S(=O)(=O)Nc1ccc2c(c1)OCCO2	-6%
CN(C)S(=O)(=O)c1ccc(C(=O)Nc2ccc(CCC(=O)N3CCCC3)cc2)cc1	62%
CCCCOc1ccc(C(=O)O)cc1	-6%
CCn1c(=O)cc(SCC(=O)N2CCN(Cc3ccc4c(c3)OCO4)CC2)c2ccccc21	158%
c1ccc(SCCOCCn2cncn2)cc1	23%
CCOC(=O)N1CCN(c2c(N3CCN(c4ccccn4)CC3)c(=O)c2=O)CC1	4µM*[single pt active]
CC1CCCN(S(=O)(=O)c2ccc(Br)s2)C1 (stereo not drawn)	2%
Brc1cc2c(cc1COc1ccc(-c3nn[nH]n3)cc1)OCO2	-18%
COC(=O)c1ccc(Cl)c(NS(=O)(=O)c2ccc3c(c2)OCCO3)c1	-19%
Cc1cc(=O)n2nc(N3CCCC(C(=O)NCc4ccc5c(c4)OCO5)C3)sc2n1 (stereo not drawn)	-1%
CN(C)c1ccc(C(=O)c2ccc(N(C)C)c(N)c2)cc1N	21%
CCOC(=O)C(C(=O)OCC)c1cc(Br)c2noc3c2c1C(=O)c1ccccc1-3	-4%
CCCCn1c(CN2CCN(CCO)CC2)nc2ccccc21	29%
CCCSc1nc2c(c(=O)n1-c1ccc(OCC)cc1)SCC2	8%
O=C(CSc1ncn[nH]1)c1ccc2c(c1)OCO2	-7%
O=C(O)CSc1ccc2ccccc2n1	-11%
O=C(c1ccco1)N1CCC2(CC1)CCN(c1ccc(-c3ccccc3)cc1)CC2	13%
O=C(COC(=O)C1COc2ccccc2O1)Nc1ccc2c(c1)CCC2 (stereo not drawn)	11%
O=C(O)c1nccnc1C(=O)Nc1ccc(Br)cn1	3%
O=C(CCCNS(=O)(=O)c1cccc2nsnc12)NCc1ccc(F)cc1	-4%
COC(=O)[C@@H]1C2CCC(C(=O)Nc3ccccc3)(CC2)[C@@H]1C(=O)OC	3%
COC(=O)Cc1ccc(NC(=O)c2cccs2)cc1	-6%
COC(=O)c1ccc(COC(=O)c2c(C)nn(Cc3ccccc3Cl)c2Cl)o1	24%
Cc1ccc(CNC(=O)C2CCCN(S(=O)(=O)c3cnc[nH]3)C2)cc1 (stereo not drawn)	10%
Cc1ccc(-c2sc(C)nc2CC(=O)O)cc1	-7%

Following part.
structure	AmpC nodet inh
c1ccc(SCc2nc(-c3ccccn3)no2)cc1	13%
O=C(NCC1CCCO1)c1c(O)c2cccc3c2n(c1=O)CCC3 (stereo not drawn)	128%
CC1=C(C(=O)OC(C)(C)C)C(c2ccco2)C(C#N)=C(N)O1 (stereo not drawn)	21%
COc1ccc(CNc2ccnc(-c3ccccc3CN(C)C)n2)c(OC)c1	55%
CC1=NC(C(F)(F)F)(C(F)(F)F)C(C#N)=C(C)N1	0%
CCOc1ccccc1Nc1ncnc2c1cnn2-c1ccccc1	14%
CSC1=N/C(=C\c2ccc(C)o2)C(=O)S1	-12%
Cc1cccc(-c2nc(CN3CCCC(C(=O)NC4CCCCC4)C3)c(C)o2)c1 (stereo not drawn)	112%
CN1CCN(C2=Nc3cc(Cl)ccc3Nc3ccccc32)CC1	84%
Cc1ccc(N2CC(c3nc4ccccc4[nH]3)CC2=O)c(C)c1 (stereo not drawn)	11%
O=C(Nc1nccs1)c1ccc(CSc2nnnn2-c2ccccc2)cc1	-13%
N=c1c(C(=O)NCc2ccc(F)cc2)cc2c(=O)n3ccccc3nc2n1CCCN1CCOCC1	45%
O=c1oc2ccccc2cc1NCc1ccccc1O	-25%
C=CCc1ccc(OC)cc1	-2%
O=c1nc2n(c3ccccc13)Cc1ccccc1-2	1%
COc1ccc(NC(=O)c2cnc(C)cn2)c2ncccc12	5%
CCOC(=O)c1cc(C(C)=O)c(=O)n(C)c1N	0%
CCOc1ccc2nc(NCCCNS(=O)(=O)c3ccccc3)c(C#N)cc2c1	-4%
Cc1cc(C(=O)CN2C(=O)NC3(CCCc4ccccc43)C2=O)c(C)n1Cc1cccs1 (stereo not drawn)	-9%
O=S(=O)(Cc1nc2ccccc2s1)c1ccccc1	-6%
CNP1(NC)=NC(C(F)(F)F)=NC(C(F)(F)F)=N1	1%
CC(=O)N1CCc2cc(S(=O)(=O)NCCC3=CCCCC3)ccc21	49%
O=C(Cc1ccc(Br)cc1)N1CCCCCC1	19%
Cc1cc(C)nc(N2CCC(C(=O)Nc3ccc4c(c3)OCO4)CC2)n1	16%
c1ccc(-c2nnc(CN3CCC4(CC3)OCCO4)o2)cc1	9%

An excerpt of these results, as labelled records:
COC(=O)c1ccc(COC(=O)c2c(C)nn(Cc3ccccc3Cl)c2Cl)o1
  AmpC nodet inh: 24%

Cc1ccc(CNC(=O)C2CCCN(S(=O)(=O)c3cnc[nH]3)C2)cc1 (stereo not drawn)
  AmpC nodet inh: 10%

Cc1ccc(-c2sc(C)nc2CC(=O)O)cc1
  AmpC nodet inh: -7%

c1ccc(SCc2nc(-c3ccccn3)no2)cc1
  AmpC nodet inh: 13%

(cont.)
structure	AmpC nodet inh
O=c1[nH]nc(CSCc2ccccc2Cl)[nH]1	-5%
COc1ccccc1CCn1c(=O)c(-c2cccc(Cl)c2)nc2cncnc21	39%
COc1ccccc1NC(=O)CSc1ccc2nnc(-c3cccnc3)n2n1	6%
CCC(CC)C(=O)Nc1ccccc1NC(C)=O	-11%
CS(=O)(=O)Nc1cccc(-c2ccc3ncnc(NCCN4CCOCC4)c3c2)c1	17%
CC[C@]1(c2cccc(O)c2)CCCCN(C)C1	-2%[12.8 µM]
Cc1cc(=S)cc(C)n1CCCO	-2%
CCCC(=O)NC(Nc1ccc(S(=O)(=O)Nc2cc(C)on2)cc1)(C(=O)OCC)C(F)(F)F (stereo not drawn)	-9%

Screening results deposited in PubChem by National Center for Advancing Translational Sciences (NCATS).
